VDR inh – blocks the human vitamin D receptor; P11473; actives 0.93% (n = 400,000); Potency, µM, for inactives: max response, negative = inhibition, most hits filed as inhibitors; AID 504847; VDR-SRC2-3 peptide fluorescence polarization, 2 h; active = well fitted inhibition curve with a large enough effect; inconclusive = small, poorly fitted or top-dose-only effect, or another doubt; inactive = no such curve, though single readings can be large or run the other way; note: series mostly up to about 120 µM
Target sequence (P11473 whole entry, looked up): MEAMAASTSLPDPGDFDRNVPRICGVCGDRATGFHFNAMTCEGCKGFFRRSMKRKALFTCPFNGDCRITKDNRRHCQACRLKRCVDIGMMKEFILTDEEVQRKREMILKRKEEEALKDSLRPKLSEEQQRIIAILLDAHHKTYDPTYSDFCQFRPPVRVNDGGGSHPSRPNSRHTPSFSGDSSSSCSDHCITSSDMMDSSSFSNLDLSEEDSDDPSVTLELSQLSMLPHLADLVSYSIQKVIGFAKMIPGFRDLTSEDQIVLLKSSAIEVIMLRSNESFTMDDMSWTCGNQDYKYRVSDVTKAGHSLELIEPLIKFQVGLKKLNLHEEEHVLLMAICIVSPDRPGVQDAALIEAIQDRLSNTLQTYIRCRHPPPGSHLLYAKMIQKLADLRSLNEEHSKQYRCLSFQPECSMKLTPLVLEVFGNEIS
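Fluorescence polarization assay measuring small-molecule disruption of VDR binding to the coregulator peptide SRC2-3. Compounds were pin-transferred (23 nl) into the reagent mix and incubated 2 h at room temperature before reading.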
Active calls of the source: *; ? = inconclusive. % is set by controls: 0 for no effect and ±100 for the full control effect; potency is the fitted concentration of half-maximal effect. A portion of the library; count on the stated rates, not on these rows.

VDR inh	Molecule
2%	COc1ccc(N(C(=O)CNC(=O)c2ccco2)C(C(=O)NC2CCCCC2)c2ccco2)cc1 (configuration not stated)
9%	CCCCN(C)CCN1C(=O)C2C(C(=O)Nc3ccc(OC)cc3)C3C=CC2(O3)C1C(=O)NC1CCCCC1 (configuration not stated)
20%	COCCNC(=O)CSc1nc(-c2ccccc2)c(-c2ccccc2)o1
-12%	O=C(O)C1CSC2c3ccccc3C(=O)N12 (configuration not stated)
6%	CC1CC1C(=O)NCCc1ccc(Cl)cc1 (configuration not stated)
-9%	COc1cccc(C(=O)N/N=C/c2ccc(OC)c(COc3ccccc3C(N)=O)c2)c1
-1%	COc1ccc(S[C@@H](CCN2CC[C@H](O)CCC2=O)c2ccccc2)cc1
-10%	COc1cc2c(cc1NC(=O)c1cc(-c3ccncc3)nc3ccccc13)oc1ccccc12
-7%	CCOc1cc(C2C(C#N)=C(N)Oc3cc(N)ccc32)ccc1O (configuration not stated)
-3%	Cc1cccc(C)c1NC(=O)c1ccc(OCc2c(C)noc2C)cc1
-10%	CC(=O)Nc1ccc(NC(=O)COC(=O)c2ccc(C)s2)cc1
-8%	Cc1ccccc1C(=O)NCC(=O)Nc1ccccc1C(F)(F)F
3%	CCOC(=O)c1c(NC(=O)Cn2nnc3ccccc32)sc2c1CCC(C)C2 (configuration not stated)
-16%	COc1ccc(C2C(=O)NN=C2C)cc1 (configuration not stated)
-4%	N#Cc1ccc(N2C(=O)[C@@H]3C(C(=O)C(c4ccccc4)c4ccccc4)=NN[C@@H]3C2=O)cc1
14%	Nc1ncc(S(=O)(=O)NCc2ccc(Cl)cc2)cn1
-11%	CSc1ccccc1-n1nnnc1SCC(=O)Nc1cc(C)ccc1C
?	COc1ccc(CN2C(=O)Cc3c2nc(N)c2c(N)nc(N4CCOCC4)c(C#N)c32)cc1
-9%	Cc1ccc(C)c(S(=O)(=O)N2CCCCC2CCNC(=O)C(=O)NCc2ccccn2)c1 (configuration not stated)
-4%	COc1ccc(C(=O)Nc2ccc(N3CCN(C(=O)c4cccs4)CC3)cc2)cc1Br

Reprinted at random: 6 records from the list.
VDR inh	Molecule
3%	CCOC(=O)c1c(NC(=O)Cn2nnc3ccccc32)sc2c1CCC(C)C2 (configuration not stated)
14%	Nc1ncc(S(=O)(=O)NCc2ccc(Cl)cc2)cn1
-4%	COc1ccc(C(=O)Nc2ccc(N3CCN(C(=O)c4cccs4)CC3)cc2)cc1Br
-16%	COc1ccc(C2C(=O)NN=C2C)cc1 (configuration not stated)
-9%	Cc1ccc(C)c(S(=O)(=O)N2CCCCC2CCNC(=O)C(=O)NCc2ccccn2)c1 (configuration not stated)
-8%	Cc1ccccc1C(=O)NCC(=O)Nc1ccccc1C(F)(F)F

More results
VDR inh	Molecule
?	Cc1ccccc1N1CC(C(=O)Nc2nnc(SCc3cccnc3)s2)CC1=O (configuration not stated)
-1%	CNC(=O)COC(=O)c1ccc(NS(=O)(=O)c2ccc3c(c2)OCCO3)cc1
-20%	Cc1cc(C(=O)NCc2cccnc2)n(-c2ccccc2)n1
-13%	O=C(CCC(=O)N1CCN(S(=O)(=O)c2ccc([N+](=O)[O-])cc2)CC1)N1CCOCC1
-6%	COc1ccccc1OC(=O)C1CC(=O)N(c2ccc(Cl)cc2)C1 (configuration not stated)
-7%	O=C(c1ccc2c(c1)N(Cc1ccccc1F)C(=O)c1ccccc1S2(=O)=O)N1CCC(Cc2ccccc2)CC1
-13%	OC(CCN1CCC2(CC1)OCCO2)C(F)(F)F (configuration not stated)
-11%	CCOC(=O)[C@H]1[C@H]2COc3ccc(Cl)cc3[C@@H]2N2C(=O)CN(CC3CCCO3)C(=O)[C@@]12C (some centres not stated)
18%	CCN(CC)S(=O)(=O)c1ccc2[nH]cc(C(=O)NCCc3ccc(OC)c(OC)c3)c(=O)c2c1
?	Cc1nc2ccc(NC(=O)NC(=O)c3c(Cl)cccc3Cl)cc2o1
-18%	OCCCn1c(C2CCCN2c2nc(-c3ccc(F)cc3)cs2)nc2cc(C(F)(F)F)ccc21 (configuration not stated)
-14%	COc1cc(NS(=O)(=O)c2ccc(NC(=S)NC(=O)COc3ccccc3OC)cc2)nc(OC)n1
-30%	COc1cccc(OC)c1C(=O)NNC(=O)c1ccccc1-n1cccc1
-2%	COc1ccccc1C(=O)NC1(C(F)(F)F)NC(=O)N(CCc2ccccc2)C1=O (configuration not stated)
-10%	O=C(Nc1ccccc1N1CCOCC1)c1cc(Cl)c2c(c1)OCO2
11%	COc1ccc(Cl)cc1N/C(N)=N/c1nc(C)cc(C)n1
3%	FC(F)(F)c1ccc2c(c1)ncc1c(-c3ccccc3)nn(-c3ccccc3)c12
-5%	CCc1cccc(NC(=O)CSc2ncccc2C(=O)Oc2ccccc2Cl)c1
-19%	Cc1nonc1NC(=O)CSc1nc2cc(Cl)ccc2c2c1CCCC2
-3%	C=C(C)CNC(=S)N/N=C/c1ccc(NC(C)=O)cc1

Four entries already listed, arranged by the value under VDR inh, smallest number first:
VDR inh	Molecule
-19%	Cc1nonc1NC(=O)CSc1nc2cc(Cl)ccc2c2c1CCCC2
-6%	COc1ccccc1OC(=O)C1CC(=O)N(c2ccc(Cl)cc2)C1 (configuration not stated)
9%	CCCCN(C)CCN1C(=O)C2C(C(=O)Nc3ccc(OC)cc3)C3C=CC2(O3)C1C(=O)NC1CCCCC1 (configuration not stated)
11%	COc1ccc(Cl)cc1N/C(N)=N/c1nc(C)cc(C)n1

The list goes on:
VDR inh	Molecule
-6%	COc1cccc2c1ncc1c(-c3ccc(C)cc3)nn(-c3ccc(F)cc3)c12
-15%	CC(C)(C)NC(=O)C(c1ccc(Cl)cc1)N(CCO)C(=O)c1snc(C(N)=O)c1N (configuration not stated)
5%	CCOC(=O)c1c(C)[nH]c(C)c1S(=O)(=O)N1CCCC(C(=O)NCc2ccc(Cl)cc2)C1 (configuration not stated)
3%	O=C(Nc1ccc(CN2CCOCC2)cc1)c1ccc2ccccc2c1
-22%	COc1ccc(C(=O)COC(=O)CN2CC(=O)Oc3ccccc32)cc1Br
-12%	O=C(CN1CCN(S(=O)(=O)c2ccc(F)c(Cl)c2)CC1)N1CCc2ccccc21
-4%	Cc1ccc(NC(=O)CN2C(=O)S/C(=C\c3cccn3-c3cccc(C(=O)O)c3)C2=O)cc1C
0%	COc1ccc(NC(=O)N2CCCC3(CCN(C(=O)c4cnccn4)CC3)C2)cc1
?	O=C(Cn1cc(COc2ccccc2[N+](=O)[O-])nn1)c1ccc(O)cc1
8%	COC(=O)c1ccc(/C=N\N2CCN(Cc3ccc(C)cc3)CC2)cc1

Filtered by structure: those above containing an NH in an aromatic ring (2)
VDR inh	Molecule
18%	CCN(CC)S(=O)(=O)c1ccc2[nH]cc(C(=O)NCCc3ccc(OC)c(OC)c3)c(=O)c2c1
5%	CCOC(=O)c1c(C)[nH]c(C)c1S(=O)(=O)N1CCCC(C(=O)NCc2ccc(Cl)cc2)C1 (configuration not stated)

(next part)
VDR inh	Molecule
-29%	CN(Cc1ccccc1)C(=O)COC(=O)C12CC3CC(CC(Br)(C3)C1)C2
-27%	O=C(COc1ccc(C(=O)c2ccc(F)cc2)cc1)NCc1ccc(F)cc1
10%	CC(=O)c1ccc(NS(=O)(=O)c2ccc3[nH]c(=O)[nH]c3c2)cc1
-24%	CCOc1ccc(NC(=O)CC2C(=O)N(c3cccc(C)c3)C(=O)N2CCC2=CCCCC2)cc1 (configuration not stated)
3%	Cc1ccc(NC(=O)CN(C)C(=O)/C=C/c2cccc(F)c2)cc1
-7%	CCn1c(-c2cccnc2Cl)nc2cc(Cl)c(Cl)cc21
-28%	COc1cccc(-c2noc(Cn3nc(C)c([N+](=O)[O-])c3C)n2)c1
?	COc1ccc(C(NC(=O)/C=C/c2ccco2)c2ccc(OC)cc2)cc1
-27%	Cc1ccccc1SCC(=O)Nc1ccc(N2CCOCC2)cc1
9%	O=C(O)CSCC(=O)Nc1ccccn1
5%	O=S(=O)(Cc1cc(-c2ccccc2)no1)c1ccccc1
-10%	CCN(CC)CCCNC(=O)c1nn(-c2cccc(OC)c2)c(=O)c2ccccc12
14%	CN(C(=O)CSc1cc(Cl)ccc1Cl)C1CCS(=O)(=O)C1 (configuration not stated)
4%	CN(C)S(=O)(=O)c1cccc(-c2nnc(-c3ccccc3)o2)c1
12%	COC(=O)[C@H](CCSC)NC(=O)N1CCN(c2cccc(C(F)(F)F)c2)CC1
11%	CC(=O)C(C)Oc1ccc(Cc2ncc(C(F)(F)F)cc2Cl)cc1 (configuration not stated)
-10%	Cc1ccc(OCC(=O)NN2C(=O)c3ccccc3C2=O)c(C)c1
-28%	N#CNC(=Nc1cccc(Cl)c1)Oc1ccccc1
0%	Cc1ccc(SCC(=O)N2c3ccccc3Sc3ccccc32)cc1
-8%	CCN(CC)S(=O)(=O)c1cc(NC(=O)C(C)OC(=O)c2[nH]c(C)c(C(C)=O)c2C)ccc1C (configuration not stated)

The list goes on; it opens with the five that closed the last part.
VDR inh	Molecule
11%	CC(=O)C(C)Oc1ccc(Cc2ncc(C(F)(F)F)cc2Cl)cc1 (configuration not stated)
-10%	Cc1ccc(OCC(=O)NN2C(=O)c3ccccc3C2=O)c(C)c1
-28%	N#CNC(=Nc1cccc(Cl)c1)Oc1ccccc1
0%	Cc1ccc(SCC(=O)N2c3ccccc3Sc3ccccc32)cc1
-8%	CCN(CC)S(=O)(=O)c1cc(NC(=O)C(C)OC(=O)c2[nH]c(C)c(C(C)=O)c2C)ccc1C (configuration not stated)
6%	Cc1cc(NC(=O)c2ccco2)no1
-20%	CC(C)NC(=O)c1sc(=S)n2c1[nH]c(=O)c1ccc(C(=O)NCCc3ccc(Cl)cc3)cc12
17%	COc1ccc(NS(=O)(=O)c2cccc(NC(=O)c3cnccn3)c2)cc1Br
-9%	CC1Oc2ccccc2C=C1/C=N/NC(=O)[C@@H](C)NC(=O)OC(C)(C)C (some centres not stated)
-13%	COc1ccc(-c2cc(C3CC3)nc(SCC(=O)c3cccs3)c2C#N)cc1
6%	CC1CCCN(CCOc2cccc(Oc3ccccc3)c2)C1 (configuration not stated)
-10%	O=C(NCc1ccc(F)cc1Cl)C1CC(=O)N(C2CCCCCCC2)C1 (configuration not stated)
-7%	O=[N+]([O-])c1ccc(Cc2ccccn2)c([N+](=O)[O-])c1
-10%	COc1ccc(NC(=O)CSc2ncnc3sc(C)cc23)cc1
22%	N=c1c2c(-c3ccccc3)c(-c3ccccc3)oc2ncn1CCN1CCOCC1
7%	CC(C)CN1CCN(Cc2c[nH]c3ccccc23)CC1CCO (configuration not stated)
14%	COc1ccc(S(=O)(=O)N2CCC(=O)N2)cc1
-5%	COc1ccc(CN(Cc2ccccn2)C(=O)CN2C(=O)C(C)Oc3ccccc32)cc1 (configuration not stated)
?	O=C(C1=C(O)C(=O)N(Cc2ccco2)C1c1cccc([N+](=O)[O-])c1)c1ccco1 (configuration not stated)
-7%	O=C(c1cc([N+](=O)[O-])ccc1N1CCCC1)N1CCCC1
-9%	Cc1nn(C)c(Cl)c1CN1CCCC(C(=O)Nc2cccc(-n3cccn3)c2)C1 (configuration not stated)
6%	CN(Cc1ccc(C(C)(C)C)cc1)C(=O)C1CCN(C(=O)Nc2ccccc2)CC1
-15%	CC(C)(C)NC(=O)COc1ccc(CNc2ccc3[nH]c(=O)[nH]c3c2)cc1
1%	O=C(N/N=C/C(Cl)=C\c1ccccc1)c1cccs1
11%	COc1cccc(CC2(CO)CCCN(Cc3ccc4c(c3)OCCO4)C2)c1 (configuration not stated)
-17%	Cc1ncoc1C(=O)NCc1ccccc1Cl
-3%	O=C(CSCc1cccc(CSCC(=O)Nc2ccc3ccccc3c2)n1)Nc1ccc2ccccc2c1
-8%	Cc1ccc2occ(/C=C/C(=O)O)c(=O)c2c1
15%	Cc1cc(C)cc(NC(=O)CSc2nc(=O)[nH]c3c2CCC3)c1
-1%	CCOc1ccc(S(=O)(=O)NCCc2ccccn2)cc1
-4%	COc1ccc(S(=O)(=O)N2CCCCCC2)cc1N(C)S(=O)(=O)c1ccc(Cl)cc1
1%	CC(C)c1ccc(OC(=O)c2ccc3c(=O)n4c(nc3c2)CCC4)cc1
-3%	COc1ccc(-c2cc(C3CCN(c4ccc(C(C)=O)cc4[N+](=O)[O-])CC3)[nH]n2)cc1
-3%	Cn1c(=O)[nH]c(=O)c2c1nc1n2CC(COc2ccc3ccccc3c2)O1 (configuration not stated)
-9%	Fc1ccc(-c2csc3[n+]2CCS3)cc1
-1%	CCOC(=O)c1c(C)[nH]c(C)c1S(=O)(=O)N(C)CC(=O)Nc1ccc(CC)cc1
-7%	Cc1ccc(S(=O)(=O)CCC(=O)OCc2ccc(S(=O)(=O)C(C)C)cc2)cc1
18%	O=c1c(-c2ccco2)[n+]([O-])c2ccccc2n1OCc1c(F)cccc1F
-8%	O=C1CC2(CCCC2)Oc2ccccc21
8%	CC(C)CCCC(C)N (configuration not stated)
-16%	Cc1cc(C)cc(N(CCC#N)C(=O)COC(=O)c2ccccc2SCC(=O)N2CCCC2)c1
1%	Cc1c[n+]([O-])cc(C)c1Oc1ccccc1
17%	O=C(NC1CCN(C(=S)Nc2ccc(F)cc2)CC1)c1ccco1
2%	c1ccc(CN2CCN(c3ncnc4c3[nH]c3ccccc34)CC2)cc1
-19%	C/C(=N\NC(=S)Nc1c(C)cccc1C)c1ccc(O)cc1
16%	O=C(Nc1nccs1)c1ccc(-c2ccc([N+](=O)[O-])cc2)o1
-9%	O=C(NCc1ccccc1)Nc1cccn(Cc2ccc(Cl)cc2)c1=O
-7%	COc1ccccc1C=NN=C1c2ccccc2-c2ccccc21
-5%	O=C(Cc1ccccc1F)Nc1nc(-c2cccs2)cs1
4%	CSc1cccc(NC(=O)C2C3C=CC4(O3)C2C(=O)N(CCCN2CCOCC2)C4C(=O)NC2CCCCC2)c1 (configuration not stated)
-3%	CCOC(=O)c1sc(NC(=O)CN2CCCC2)c(C(=O)OCC)c1C

Source: PubChem
